Compound activity (PubChem)
GLA inh pH 4.5: inhibitors of human alpha-galactosidase A at pH 4.5; purified enzyme, 4-MU-alpha-Gal fluorescence, pH 4.5; AID 1467; activity change, negative = inhibition, % at 105 µM; 230,000 tested, under 10 active; inconclusive = small, poorly fitted or top-dose-only inhibition, or a rising curve; inactive = flat fitted curve, though single readings scatter; no compound was filed as active;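 also: 0% = full activity with enzyme and -100% = basal without enzyme; dose as in the result columns while the protocol names 77 µM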
Target sequence (P06280 whole entry, looked up): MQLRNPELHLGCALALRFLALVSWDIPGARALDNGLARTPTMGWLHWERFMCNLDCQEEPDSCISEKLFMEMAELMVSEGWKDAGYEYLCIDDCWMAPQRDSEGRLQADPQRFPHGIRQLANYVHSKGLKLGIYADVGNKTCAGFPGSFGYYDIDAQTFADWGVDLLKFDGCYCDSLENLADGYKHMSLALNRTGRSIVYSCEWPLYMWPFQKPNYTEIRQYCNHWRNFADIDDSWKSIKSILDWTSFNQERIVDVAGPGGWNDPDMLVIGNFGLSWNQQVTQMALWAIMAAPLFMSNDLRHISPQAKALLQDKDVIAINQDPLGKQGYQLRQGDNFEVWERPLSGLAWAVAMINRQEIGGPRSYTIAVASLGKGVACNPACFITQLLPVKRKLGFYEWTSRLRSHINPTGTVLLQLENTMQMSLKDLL
Rango release inh: prevents RanGTP from dissociating the Rango-importin beta complex | Biochemical FRET Rango-importin beta, RanGTP-induced dissociation | Potency, µM (series often up to 46.1 µM), inactives show at the highest dose activity change, negative = inhibition | AID 540253 | hit rate 0.071% among 340,000 | O95149+P62826; active means falling FRET ratio curve, often poorly fitted, with flat reads before Ran was added; inconclusive means other falling curves, or compound fluorescence or quenching; inactive means flat or rising ratio curve;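 also: potency is read from the fitted curve at half-maximal effect; % of control where 0% means no effect; nearly all actives have a fitted effect of over 45% in size; -100% = wells without RanGTP and RCC1; the record marks most hits as doubtful in a second field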
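Compounds preincubate 5 min with complex of recombinant Rango and importin beta in PBS with 1 mM DTT. Ran (0.6 uM) loaded with 2 mM GTP plus 0.2 uM RCC1 starts dissociation; FRET is recorded 45 min later.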
miR-21 FLuc: raises the signal of a miR-21 reporter | HeLa miR-21 FLuc reporter, luciferase, 48 h | Potency, µM (titrated, usually from 38.3 µM), without a hit: top-dose reporter change, positive = more light | 340,000 tested, under 10 active; active = well fitted rising curve with a large enough effect; inconclusive = small, poorly fitted or top-dose-only effect; inactive = no such curve, though single readings can be large or run the other way;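 also: % of control where 0% means no effect; miR-21 action dims this reporter so a rising signal means less miR-21 action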
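Compounds were titrated across several concentrations (up to approximately 40 uM) and incubated 48 hours with HeLa miR-21-FLuc reporter cells (miR-21 target sequence downstream of FLuc, endogenous miR-21). Readout was firefly luciferase luminescence after lytic detection reagent.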
Rango complex inh: prevents formation of the Rango-importin beta complex; Q14974; Rango CFP/YFP FRET sensor + importin beta, 45 min; Potency, µM (doses to about 92.2 µM), inactives show top-dose inhibition of complex formation; hit rate 0.031% among 340,000; active = rising FRET ratio curve, often small or poorly fitted; inconclusive = mostly compound fluorescence or quenching in the first reads; inactive = flat curves in all reads;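 also: potency is read from the fitted curve at half-maximal effect; 0% = DMSO wells and 100% = buffer wells lacking importin beta; nearly all actives have a fitted effect of over 15% in size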
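FRET biosensor (snurportin 1 IBB flanked by EYFP and cerulean), 50 nM, with compound 5 min, then 0.125 microM importin beta in PBS, 1 mM DTT, 0.02% Tween-20, 0.1% BSA. CFP/YFP ratio read after 45 min at room temperature; pre-read flags interference.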
Numbers without * were called inactive; ? = inconclusive; · = no result given; & = joins results of further samples; [ ] = another dose, or the depositor's remark. This is a subset (hit frequency here may not be typical).

Results follow in this order: GLA inh pH 4.5 | Rango release inh | miR-21 FLuc | Rango complex inh
CC1CCc2c(sc3nn[nH]c(=O)c23)C1 (configuration not stated)
 : -2 | -8% | -8% | 2.7%
CC1CCCC(NC(=O)CCNC(=O)c2ccc(Br)cc2)C1C (configuration not stated)
 : · | -10% | · | -3.3%
Cc1nnc(CN(C)Cc2cn[nH]c2-c2ccc(-c3ccccc3)cc2)o1
 : -3 | -4% | -34% | -3.0%
COc1cccc(CCNC(=O)C2CCCN(c3ncnc4c3nc3n4CCCCC3)C2)c1OC (configuration not stated)
 : · | -10% | -1% | -0.3%
CCc1ccccc1NC(=O)Nc1cnccn1
 : · | -6% | -8% | ?
O=C(Nc1cccc(-c2nnc(-c3ccccc3)o2)c1)C1CC1
 : 1 | 13% | -23% | -3.7%
CN1CCN(CCN2CCn3c2nc2ccccc23)CC1
 : 1 | -14% | -16% | -0.3%
CCc1nnc(NC(=O)c2cc(-c3cccnc3)nc3ccccc23)s1
 : 3 | 0% | -1% | -4.0%
C=CCOc1c(Br)cc(/C=N/O)cc1OCC
 : -1 | -18% | 18% | -3.6%
CN(CCc1ccccn1)S(=O)(=O)c1ccccc1F
 : -2 | 4% | -6% | -1.4%
COc1ccccc1-c1cc(C2CC2)nc(N)c1C#N
 : 1 | -10% | -33% | -1.3%
Cc1c(OCC(=O)NC2CCN(Cc3ccccc3)CC2)ccc2c3c(c(=O)oc12)CCC3
 : · | -5% | 0% | -1.2%
COC(=O)c1nc2n(n1)C(c1cccc(Cl)c1)C1=C(CC(C)(C)CC1=O)N2 (configuration not stated)
 : -12 | 21% | -2% | -7.0%
COc1ccc2cc(C3CC(c4cccs4)=NN3S(C)(=O)=O)c(Cl)nc2c1 (configuration not stated)
 : -7 | -13% | -18% | ?
CNC(=S)N(Cc1cccs1)Cc1cc2ccc(OC)cc2[nH]c1=O
 : 1 | 4% | 3% | 0.9%
N#CC1(NC(=O)COC(=O)c2nc(Cl)ccc2Cl)CCCCC1
 : · | -17% | · | -2.0%
CCCC(=O)Nc1nnc(COC)s1
 : 0 | 19% | 2% | 2.5%
COCCn1nnnc1CN(Cc1cccnc1)Cc1cc2cc(OC)ccc2[nH]c1=O
 : 9 | 24% | -6% | -4.0%
COc1ccc(OC)c(C(=O)Cn2nnc(-c3ccc(N4CCOCC4)cc3)n2)c1
 : 1 | -9% | -5% | -2.0%
O=C(NCC1CCCO1)C(c1ccc(N2CCOCC2)cc1)N(C(=O)Cn1nnc2ccccc21)c1ccccc1F (configuration not stated)
 : -17 | 23% | -3% | -1.8%
N=c1c2c(-c3ccccc3)c(-c3ccccc3)n(Cc3ccco3)c2ncn1CCCO
 : -16 | -7% | 29% | 0.4%
Cc1cccc(NC(=O)C2CCN(S(=O)(=O)c3ccc4c(c3)NC(=O)CO4)CC2)c1
 : · | -3% | 16% | -2.2%
CCNC(=S)NNC(=O)c1cc(CC(C)C)nc2ccccc12
 : -9 | -2% | -2% | 1.7%
CCCCOc1ccc(C(=O)NCCC(=O)NCCCC(=O)OCC)cc1
 : -10 | 1% | 3% | 5.4%
CCN(CC)CCCn1c2c(c(SCC(=O)Nc3ccccc3Cl)nc1=O)CCC2
 : · | 2% | · | 0.8%
Cc1nn(CC(=O)Nc2ccccn2)c(=O)c2ccccc12
 : 0 | 22% | 0% | -2.0%
CCN(CC)S(=O)(=O)c1cccc(C(=O)N2CCCCC2)c1
 : 6 | -9% | 1% | 1.3%
Nc1cc2c(cc1Br)-c1ccccc1C2=NO
 : · | 10% | · | 7.7%
NCC12CC3CC(C1)CC(c1ccc(Cl)cc1)(C3)C2
 : 0[21.1 µM] | -1% | ? | 4.7%
CCc1ccc(NC(=O)Cn2nnc(C(=O)NCc3ccc(OC)cc3)c2N)cc1
 : · | 6% | -8% | 2.7%
C=CCn1c(O)c(N=NC(=S)Nc2ccccc2C)c2cc(S(=O)(=O)N3CCOCC3)ccc21
 : -19 | -8% | 11% | -2.1%
Cc1ccc(OCCn2cc(C(=S)N3CCCC3)c3ccccc32)cc1C
 : 3 | -7% | 24% | -0.2%
CC(NC(=O)c1nn(C)c2c1CS(=O)(=O)c1ccccc1-2)c1ccccc1 (configuration not stated)
 : · | -9% | -5% | -1.5%
O=c1cc(CO)oc(CN2CCC(Cc3ccccc3)CC2)c1O
 : -15 | -11% | -3% | -0.3%
O=C(COC(=O)c1ccccc1NC(=O)c1ccco1)NC1CC1
 : 9 | -10% | 0% | ?
Cn1c(=O)[nH]c2nc[nH]c2c1=O
 : -19 | 3% | · | -1.9%
CCCn1nc2cc(C(=O)NCc3ccc(OC)cc3)ccc2c1OCC
 : 1 | 0% | -3% | -0.1%
O=C(CCCc1ccccc1)NCCc1ccc(F)cc1
 : · | -3% | -19% | 0.1%
Cc1ccc(S(=O)(=O)N2CCN(C(=O)COC(=O)C3CCC3)CC2)cc1
 : · | -2% | · | 0.7%
CC(C)(C)OC(=O)N1CCCC(C(=O)Nc2cccc(C(=O)N3CCCC3)c2)C1 (configuration not stated)
 : · | 7% | · | -2.0%
COC(=O)c1ccccc1NC(=O)Nc1cnccn1
 : -2 | 12% | 2% | 0.6%
C/C(=N\NC(=O)CNC(=O)c1ccc(Br)cc1)c1ccco1
 : · | 7% | 1% | -1.1%
Cc1cc(C)c(C(=O)COC(=O)CCNS(=O)(=O)c2c(Cl)cccc2Cl)cc1C
 : -23 | -10% | -4% | 8.8%
Cc1ccc([N+](=O)[O-])c(OCCN2CCc3ccccc3C2)c1
 : · | 14% | -12% | -0.4%
CCOc1cc(/C=C2\CCCC(C(=O)C(F)(F)F)=C2O)ccc1O
 : 10 | ? | 2% | ?
COC(=O)c1ccc(COC(=O)c2ccc(CS(=O)(=O)c3ccc(C)cc3)cc2)cc1
 : 7 | -13% | -5% | -0.1%
COc1ccc(C2Nc3ccccc3C(=O)N2c2ccc(C)cc2)cc1Cn1nnc2ccccc21 (configuration not stated)
 : 7 | -10% | -64% | -0.1%
O=C(/C=C/c1cccc(F)c1)Nc1cc(S(=O)(=O)N2CCOCC2)ccc1Cl
 : · | -4% | · | 0.8%
CCN1CCN(Cc2cccc(Oc3ccccc3)c2)CC1
 : 1 | -11% | 0% | 1.8%
Cc1nc2ccccc2n1CC(=O)OCC(=O)NCCc1ccccc1
 : 1 | 0% | 1% | 0.5%
Cc1ccc(S(=O)(=O)Nc2cc(C(F)(F)F)ccc2N2CCOCC2)cc1C
 : -18 | -7% | -2% | -3.0%
COc1ccc(-c2ccc(CCC(=O)O)n2NC(=O)c2ccc(C(C)(C)C)cc2)cc1
 : 4 | -8% | -1% | -0.8%
CN(C)c1ncnc(N(C)C)c1[N+](=O)[O-]
 : -2 | -7% | -12% | -0.4%
COc1ccc(C2=NN3C(C2)c2ccccc2OC3c2cccs2)cc1 (configuration not stated)
 : 8 | -7% | -47% | 7.8%
O=C(NCc1ccccc1)NC1CCCCC1
 : -1 | -5% | -38% | -0.4%
CC(C)CCN(C(=O)COc1ccc(C#N)cc1)c1c(N)n(Cc2ccccc2)c(=O)[nH]c1=O
 : 10 | · | 2% | ·
COc1ccc(C2C3(C#N)C(N)=NC(OC)(OC)C23C#N)cc1 (configuration not stated)
 : -11 | ? | 3% | ?
CCN(CC)CCCOc1ccc(Cl)c(Cl)c1
 : 1 | 13% | 1% | 2.8%
CCC(OC(=O)CC1Sc2ccccc2NC1=O)C(=O)NCC1CCCO1 (configuration not stated)
 : 0 | -14% | 1% | -0.4%
CCOC(=O)C1=C(CSc2nc(C)ccc2C#N)OC(N)=C(C#N)C1c1cccc(OC)c1OC (configuration not stated)
 : -2 | ? | -19% | ?

Going on with the list:
Results follow in this order: GLA inh pH 4.5 | Rango release inh | miR-21 FLuc | Rango complex inh
COc1ccc(-c2oc3ccc(N4CCOCC4)cc3c2C#Cc2ccc(N)cc2)cc1
 : · | -23% | · | 3.9%
CCN(CC(=O)Nc1ccccc1C(F)(F)F)C(=O)c1ccc2c(=O)n3c(nc2c1)CCC3
 : · | -8% | · | -5.6%
COc1cc(/C=N/NC(=O)Cc2ccccc2)cc([N+](=O)[O-])c1O
 : · | -9% | -6% | ?
CC1Cc2ccccc2N1C(=O)COC(=O)CCc1nc2ccccc2c(=O)[nH]1 (configuration not stated)
 : 2 | 3% | -5% | -1.6%
Cc1cc(=O)[nH]c(N2CCN(Cc3ccccc3)CC2)n1
 : -10 | 1% | -3% | ?
c1ccc2c(-c3csc(-c4ccncc4)n3)c[nH]c2c1
 : 7 | ? | -56% | 1.2%
Cc1onc(-c2ccccc2)c1C(=O)NC(=S)NNC(=O)c1ccccc1O
 : -12 | -3% | ? | 0.1%
CCOC(=O)CSc1nc(N2CCOCC2)c2c(c1C#N)CC(C)(C)OC2
 : · | 2% | -5% | 0.1%
COc1ccc(N2CCN(C(=O)NCc3ccc(C)cc3)CC2)cc1
 : · | 10% | 16% | -4.0%
O=C1CSC(c2cccc([N+](=O)[O-])c2)N1CCc1ccccc1 (configuration not stated)
 : · | 9% | 4% | -5.2%
Nc1cccc(-c2ccc(CO)o2)c1
 : -20 | -8% | -23% | 2.1%
O=C1NC2(CCCc3ccccc32)C(=O)N1CCOc1ccc(Br)cc1 (configuration not stated)
 : -3 | 1% | -4% | 0.2%
CCc1nn(CC(=O)NCCN2CCN(C)CC2)c(=O)c2cc3c(OC)cccc3n12
 : · | 21% | -1% | 4.7%
COc1ccc(CCC(=O)O)c(O)c1
 : 3 | 0% | 0% | 0.3%
Cc1ccc(/C=N/NC(=O)CN2CCN(Cc3ccccc3Cl)CC2)o1
 : 1 | -7% | -6% | -3.1%
CC(=O)Nc1ccc(S(=O)(=O)Nc2ccc(S(=O)(=O)N3CCCC3)cc2)cc1
 : 7 | 14% | -2% | -5.0%
CN(C)c1cccc(C(=O)NNC(=O)/C=C/c2cccs2)c1
 : · | -9% | · | -1.5%
COc1ccc(NC(=O)N(Cc2cc3cc(OC)ccc3[nH]c2=O)CC2CCCO2)cc1 (configuration not stated)
 : -20 | 0% | 16% | 0.7%
COc1cc(OC)cc(C(=O)N[C@H](C(=O)NC2=NCCS2)C(C)C)c1
 : · | ? | · | -1.3%
COc1ccc(NC(=O)COC(=O)Cc2c(F)cccc2Cl)cc1OC
 : 6 | 2% | 0% | -0.1%
Cc1ccc(C(=O)NCC(=O)NCc2cc(=O)n(C)c(=O)n2C)cc1
 : · | -8% | 1% | 2.4%
COC(=O)c1cccc(Nc2nc(-c3ccncc3)nc3ccccc23)c1
 : · | 2% | -7% | 1.9%
COc1ccc2occ(C(=O)c3ccc(N)cc3)c2c1
 : · | 17% | -12% | 2.6%
O=C(O)c1csc(-c2cccc(Cl)c2)n1
 : -2 | 10% | -5% | 0.5%
COc1ccccc1NC(=O)CSc1nnc(Cc2cc(=O)[nH]c(=O)[nH]2)n1-c1ccccc1
 : 5 | -15% | -1% | -0.3%
Nn1c(SCC(=O)Nc2ccc3c(c2)OCO3)nnc1-c1ccc(Cl)cc1
 : 7 | 8% | 2% | 6.6%
CCOc1ccc(Cc2nnc(SCC(N)=O)n2C)cc1
 : 0 | -5% | -1% | -1.6%
CN1[C@@H]2CC[C@H]1CC(OC(=O)c1c[nH]c3ccccc13)C2 (some centres not stated)
 : -10 | -6% | · | 0.5%
COc1ccc(Cc2nc3ccc(C(=O)NCCc4cccc(C)n4)cc3o2)cc1
 : · | 1% | 1% | -1.2%
Cc1ccc(Cn2ncc(Cl)c(Cl)c2=O)cc1
 : 0 | ? | ? | ?
CCOc1ccc(C2C(C#N)=C(N)Oc3cc(O)ccc32)cc1OCC (configuration not stated)
 : · | ? | 1% | ?
CC(=O)Nc1cccc(NC(=O)CSc2nccn2Cc2ccco2)c1
 : · | -13% | 0%&-7% | 0.8%
COc1cc(C2c3c(-c4cc(C)cc(C)c4O)n[nH]c3C(=O)N2CCCO)cc(OC)c1OC (configuration not stated)
 : -20 | -1% | -20% | -1.7%
O=C(Nc1ccc(Cl)cc1)N1CCN(c2ccc3nnc(-c4ccc(F)cc4)n3n2)CC1
 : -12 | -3% | -5%&28% | 1.1%
Cc1ccc(Cl)cc1N(CC(=O)N1CCCCCC1)S(C)(=O)=O
 : 3 | 13% | -1% | -1.4%
O=[N+]([O-])c1ccc(SCc2c(F)cccc2Cl)nc1
 : -9 | 5% | -2% | -1.1%
